# Screening data (PubChem BioAssay)
# gsp agonist – activates gsp, the McCune-Albright syndrome mutation. gsp mutant cells, cAMP HTRF, 30 min; control for the full effect not named in the record. Potency, µM (highest dose often 76.9 µM), for the others: top-dose activation (cAMP increase), usual class: activators. 340,000 tested, 0.13% active; active = well fitted activation curve with a large enough effect; inconclusive = small, poorly fitted or top-dose-only effect, or another doubt; inactive = no such curve, though single readings can be large or run the other way; cell line not stated here;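 note: phosphodiesterase inhibitor Ro 20-1724 added with compounds to block cAMP breakdown; potency is the fitted concentration of half-maximal effect; nearly all actives have a fitted effect of over 60% in size; about a fifth of the inactives were tested at one dose only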
#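 Cells stably selected in G418 were plated at 2000/well, grown 16-24 hr, then given compounds in DMSO with the PDE inhibitor […] (300 uM solution added) for 30 min at 37C; cAMP was read by HTRF.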
# TRPML1 agonist – activates the human TRPML1 channel; Q9GZU1; TRPML1-expressing cells, Ca2+ dye fluorescence, FDSS; host cell line not named in the record; reference of the full effect not given here; activation, % (no concentration beside the values); 410,000 tested, 0.12% active; AID 624414; in the data active = activation above about 50%; inconclusive = about 30% to 50%; inactive = below about 30%; note: 0% is about no effect; the text of the record puts the active cut at 80%
# Target sequence (Q9GZU1 whole entry, looked up): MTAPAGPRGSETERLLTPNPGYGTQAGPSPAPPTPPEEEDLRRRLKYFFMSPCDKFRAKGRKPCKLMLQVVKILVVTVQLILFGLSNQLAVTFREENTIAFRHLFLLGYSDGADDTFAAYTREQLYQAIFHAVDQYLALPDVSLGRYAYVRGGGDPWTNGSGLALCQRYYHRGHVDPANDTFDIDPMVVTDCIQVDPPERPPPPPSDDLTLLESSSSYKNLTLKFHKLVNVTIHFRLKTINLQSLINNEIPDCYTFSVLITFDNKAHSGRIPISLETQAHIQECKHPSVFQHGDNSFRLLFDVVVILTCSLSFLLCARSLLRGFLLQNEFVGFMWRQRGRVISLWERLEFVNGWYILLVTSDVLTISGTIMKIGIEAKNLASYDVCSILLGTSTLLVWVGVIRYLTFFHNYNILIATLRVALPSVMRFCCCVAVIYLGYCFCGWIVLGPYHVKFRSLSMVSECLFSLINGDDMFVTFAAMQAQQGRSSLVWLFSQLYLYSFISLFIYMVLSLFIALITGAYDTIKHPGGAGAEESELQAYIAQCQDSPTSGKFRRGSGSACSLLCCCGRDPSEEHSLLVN
#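 Agonist activity was taken from a 110 s kinetic Ca2+ dye read on the FDSS after pinning compounds onto TRPML1-DL cells. The cells were seeded at 1,500/well with Tet inducer, incubated about 16 h, then dye-loaded at room temperature.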
# ClpP mod – qHTS Assay for Activators of ClpP | ATP-dependent Clp protease proteolytic subunit (Bacillus subtilis (strain 168)), P80244 | purified B. subtilis ClpP, FRET peptide cleavage, 20 min | Potency, µM (highest dose often 57.5 µM), for the others: top-dose activity change, negative = active | 340,000 tested, 1.9% active | AID 651965, 2013; active = well fitted falling curve with a large enough effect; inconclusive = small, poorly fitted or top-dose-only effect; inactive = no such curve, though single readings can be large or run the other way; note: potency is the fitted concentration of half-maximal effect; the source files actives as falling curves though it sought activators and does not explain the sign; nearly all actives have a fitted effect of over 65% in size; many hits overshoot -100%
# Target sequence (P80244 whole entry, looked up): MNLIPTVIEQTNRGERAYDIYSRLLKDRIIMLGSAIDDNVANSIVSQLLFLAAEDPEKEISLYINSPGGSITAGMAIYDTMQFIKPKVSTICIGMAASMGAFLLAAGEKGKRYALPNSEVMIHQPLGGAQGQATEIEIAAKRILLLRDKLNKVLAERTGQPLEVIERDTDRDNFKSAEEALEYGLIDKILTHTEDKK
#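 FRET quenching reversal measured ClpP activation: 10 microg/mL B. subtilis ClpP at pH 8 with the FRET-FV decapeptide, read at 430 nm after 320 nm excitation. The 20-min minus 0-min signal was scaled between DMSO/no-enzyme wells and ADEP (5.8 microM final).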
# TRPML1 inh – human mucolipin-1 channel inhibition; Q9GZU1; TRPML1-inducible cells, Ca2+ dye fluorescence, FDSS; active compounds read low; inhibition of EC80 agonist-evoked calcium signal; activity change, negative = inhibition, % (no concentration beside the values); 390,000 tested, 0.02% active; in the data active means activity change below about -50%; inconclusive means about -30% to -50%; inactive means above about -30%;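 note: stimulus is agonist 54-4 at its EC80 concentration; % is set by controls: 0 for no effect and ±100 for the full control effect; compound concentration not given in the record; the text of the record puts the active cut at -80%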
#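 Tet-induced TRPML1-DL cells loaded with Ca8 no-wash calcium dye were read kinetically on FDSS. Compound addition was followed by EC80 agonist 54-4 (4 uM final); inhibition was read over 110 s.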
# gsp antagonist – antagonists of gsp mutant (McCune-Albright syndrome). 340,000 tested, 0.4% active. gsp-mutant cells, cAMP HTRF, 30 min; control for the full effect not named in the record. Potency, µM (highest dose often 76.9 µM), inactives show at the top dose activity change, negative = inhibition, hits mostly inhibitors; active = falling curve of any shape with a large fitted effect; inconclusive = falling curve, mostly with a smaller effect; inactive = flat or rising curve; cell line not stated here;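 note: intracellular cAMP measured with PDE inhibitor Ro 20-1724 present during compound exposure; potency is the fitted concentration of half-maximal effect; % is set by controls: 0 for no effect and ±100 for the full control effect; nearly all actives have a fitted effect of over 65% in size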
#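 HTRF cAMP measurement after 30 min RT detection following 30 min, 37C compound treatment alongside […] (added as 300 uM solution) in G418-selected cells seeded at 2000/well and grown 16–24 h.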
# Menin-MLL FL inh – inhibitors of human menin-MLL interaction, wild-type MLL peptide; Fluorescence polarization, fluorescein-MLL peptide displacement from menin; 290,000 tested, under 10 active; FP activity change, % at 61.4 µM; inconclusive = falling polarisation curve, or a change in total fluorescence; inactive = total fluorescence flat and polarisation flat or rising; no compound was filed as active; the % refers to the polarisation; negative = inhibition;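 note: % of control where 0% means no effect; inhibitors lower the polarisation; unlabelled MLL peptide was the positive control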
# Starred values were filed as active, the others as inactive; ? = inconclusive; . = not tested or not shown; & = joins results of further samples; [ ] = another dose, or the depositor's remark.
SMILES,gsp agonist,TRPML1 agonist,ClpP mod,TRPML1 inh,gsp antagonist,Menin-MLL FL inh
Cc1ccc(N(C(=O)c2snc(C(N)=O)c2N)C(C(=O)NCc2ccccc2)c2ccncc2)c(C)c1 (configuration not stated),16%,0.8,.,8,-15%,-0.3
Cc1ccc(C(=O)NNC(=O)C2CCN(C(=O)OC(C)(C)C)CC2)cc1,8%,0.1,3.2%,?,17%,2.0
O=C(NCCN1CCCCC1)Nc1ccccc1Cl,-64%,0.3,-1.0%,-12,-2%,4.6
CCN(c1ccccc1)S(=O)(=O)c1ccc(C(=O)N2CCOCC2)cc1,?,0.1,0.6%,-11,-2%,.
NC1=NC[C@H](Cc2ccc(O)cc2)N1CCC12CC3CC(CC(C3)C1)C2,.,-0.2,0.7%,20,4%,4.9
O=C(Nc1ccc(C(=O)Nc2ccccc2Cl)cc1)c1cccnc1,-6%,-0.6,-1.1%,-8,-6%,.
COc1ccc(-n2c(=S)[nH]c3cc(C(=O)Nc4ccc(F)cc4)ccc3c2=O)c(OC)c1,5%,0.4,.,0,40µM*,2.4
Cc1onc(-c2c(F)cccc2Cl)c1C(=O)Nc1nnc(C(F)(F)F)s1,?,0.3,-7.2%,-13,-26%,.
CCc1noc(C)c1C(=O)OCC(=O)NCCc1ccc(OC)cc1,-23%,0.7,1.7%,5,2%,.
O=C1C(=O)N(Cc2cccc([N+](=O)[O-])c2)c2ccccc21,5%[15.4 µM],0.0,.,3,34%,-15
Cc1ccc([C@H]2C[C@@H](O)[C@H](n3cc(-c4ccc(F)cc4)nn3)CN2C(=O)C2CCCCC2)cc1,-31%[inhibitor],1.6,1.0%,4,.,.
COc1ccc(-c2cn3c(n2)sc2cc(C(=O)NCC(C)c4ccccc4)ccc23)cc1 (configuration not stated),.,-0.6,4.8%,-1,.,.
COc1ccccc1CNC(=O)C1CCCN(S(=O)(=O)c2c(C)[nH]c(=O)[nH]c2=O)C1 (configuration not stated),-26%,0.0,9.8%,-4,-12%,-0.2
O=c1c([N+](=O)[O-])cn(Cc2ccccc2)c(=O)n1Cc1ccccc1,-1%,-0.7,.,-8,-13%,.
Cc1ccc(C)c(NC(=S)N(Cc2ccc(Cl)cc2)Cc2ccc(C(=O)O)cc2)c1,-28%,0.1,.,-19,-30%,1.0

# Following part:
SMILES,gsp agonist,TRPML1 agonist,ClpP mod,TRPML1 inh,gsp antagonist,Menin-MLL FL inh
CC(C)c1ccc(NC(=O)N2CCc3ccccc3C2)cc1,-1%,0.2,.,18,-6%,-10
CC1CN(C(=O)c2ccccc2)c2ccccc2NC1=O (configuration not stated),16%,0.6,5.2%,-2,5%,2.3
COc1ccccc1/C=C/C(=O)N1CCCC1,11%,-1.9,-9.4%,-1,7%,2.0
FC(F)(F)c1cc(CCN2CCNC[C@@H]2c2ccccc2)cc(C(F)(F)F)c1,.,0.9,-0.6%,10,-1%,.
CSc1ccc(CNC(=O)c2ccccc2NC(=O)c2nsc3ccccc23)cc1,.,0.7,-13%,6,.,.
COc1cccc(OCCOc2c(OC)cccc2OC)c1,13%,0.5,1.1%,-4,17%,1.5
O=C(CCN1C(=O)c2ccccc2S1(=O)=O)Nc1ccc2c(c1)OCCO2,-13%,-0.3,-1.5%,15,-3%,5.8
O=C(Nc1cccc(Cl)c1)Nc1nc(-c2ccc(Cl)cc2)cs1,?,-0.1,-1.6%,46,1%,6.3
CC(NC(=O)CSc1ccccc1C(=O)O)C1CC2CCC1C2 (configuration not stated),-2%,1.9,-0.6%,-23,3%,-2.0
COc1ccc(NC(=O)CSc2nnc(-c3nonc3NC(C)=O)n2-c2ccccc2)cc1,.,-0.7,0.1%,11,.,.
COC(=O)c1cc(C)c(C)cc1NC1OC(CO)C(O)C1O (configuration not stated),3%,1.0,3.5µM*,3,9%,.
CCCn1nc(C(=O)Nc2ccc(-n3cnnn3)cc2)c2ccccc2c1=O,-5%[15.4 µM],2.2,.,5,-4%,.
COc1ccccc1N(CC(O)Cn1nc(C)cc1C)S(=O)(=O)c1ccccc1 (configuration not stated),-9%[15.4 µM],-0.3,.,15,-2%,-4.7
Oc1ccc(N=Nc2ccc(Br)cc2)c(O)c1,11%,3.3,0.7%,-9,-3%,0.1
COc1ccc(CCNC2CCc3ccccc3C2)cc1 (configuration not stated),5%,-0.5,0.6%,-26,-2%,-1.6

# Remaining list, next part.
SMILES,gsp agonist,TRPML1 agonist,ClpP mod,TRPML1 inh,gsp antagonist,Menin-MLL FL inh
O=C(Nc1ccc2nc(SCC(=O)N3CCCC3)sc2c1)c1ccccc1,.,2.7,?,-1,.,.
c1ccc(C2C/C(=N\N3CCOCC3)c3ccccc3O2)cc1 (configuration not stated),9%,2.3,-0.8%,7,11%,3.9
O=C(NCCc1ccc(F)cc1)C(=O)NCC(c1cccs1)S(=O)(=O)c1ccc(Cl)cc1 (configuration not stated),.,1.8,2.7%,79,.,.
COc1ccc(OC)c(N2CC(O)(c3cccs3)[N+]3=C2SCCC3)c1 (configuration not stated),4%[15.4 µM],-0.4,-2.7%,10,11%,-2.6
Cc1ccc(CNS(=O)(=O)c2ccc(-c3cnc(C4CC4)o3)cc2)cc1,-12%,1.4&-1.1,4.4%&4.1%,-23&-3,9%,.
O=C(CNC(c1ccccc1)c1ccccc1)Nc1cc([N+](=O)[O-])ccc1Cl,0%,1.3,1.0%,-11,-19%,-2.6
CCOc1ccc(/C(O)=C2/C(=O)C(=O)N(Cc3cccnc3)C2c2ccc(N(C)C)cc2)c(C)c1 (configuration not stated),-3%,0.5,-2.7%,-5,-3%,0.7
COc1ccc(S(=O)(=O)NCC(c2ccco2)S(=O)(=O)c2cccs2)cc1OC (configuration not stated),.,0.4,2.1%,-29,.,.
COc1cc(NS(=O)(=O)c2ccc(Cl)cc2)c(C(=O)O)cc1OC,-4%,0.1,?,32,-8%,3.3
CC(=O)NC(CCS(C)(=O)=O)C(=O)Nc1ccccc1Cl (configuration not stated),-5%,2.4,16µM*,-1,-6%,0.0
O=C(C[n+]1cccc(/C=N/O)c1)N1CCCc2ccccc21,-2%[15.4 µM],2.5,.,16,14%,?
COc1ccccc1CC(NC(C)=O)C(=O)NC1CCN(C(=O)c2ccc(C)cc2)CC1 (configuration not stated),-10%[15.4 µM],0.9,.,12,13%,1.8
CCOC(=O)C1CCN(c2c(-c3ccccc3)c3cc(Cl)ccc3[nH]c2=O)CC1,2%,0.4,-11%,0,-16%,29
CCOc1cc(S(=O)(=O)N(Cc2ccccc2)Cc2ccccc2)c(OCC)cc1-n1cnnn1,?,1.0,28µM*,7,-5%,3.7
COc1ccc(-n2c(Cc3cccn3C)nnc2SCC(=O)Nc2ccccc2F)cc1,-13%,1.6,2.3%,23,-25%,1.7

# (continued)
SMILES,gsp agonist,TRPML1 agonist,ClpP mod,TRPML1 inh,gsp antagonist,Menin-MLL FL inh
Cc1ccc(S(=O)(=O)NC(=O)c2cc(C)n(C3CC3)c2C)cc1,-9%[15.4 µM],1.0,-1.3%,?,-1%,0.6
COc1cc2oc3ccc(C#Cc4ccccn4)cc3c(=O)c2cc1OC,.,1.9,3.4%,-9,0%,.
Cc1csc(NC(=O)CSC2=NS(=O)(=O)c3cc(F)ccc3N2)n1,1%,0.2,-23%,2,11%,.
Cc1ccc2nc(/C(C#N)=C\c3cc(C)n(-c4cccc([N+](=O)[O-])c4)c3C)[nH]c2c1,-13%,-0.1,-1.0%,-5,12%,2.8
CCOC(=O)N1CCN(C(=O)c2ccc(OC)cc2)CC1,-1%,0.6,-3.4%,14,2%,-2.3
Cn1nnc2c(NCc3ccc(Cl)cc3)ncnc21,.,2.4,0.1%,-12,.,.
Cc1cc(C)c(S(=O)(=O)Nc2cccc(C(=O)O)c2)cc1S(=O)(=O)Nc1cccc(C(=O)O)c1,15%[15.4 µM],-0.7,0.4%,48,-9%,.
O=C(CCN1CCN(C/C=C/c2ccccc2)CC1)Nc1ccccc1,5%,1.3,0.3%,6,15%,2.5
COc1ccc(CNC(=O)Cn2c(SCC(=O)Nc3ccc(OC)cc3)nc3ccccc32)cc1,.,-0.2,-2.0%,3,.,.
O=C(CCS(=O)(=O)c1cccs1)N1CCCC1,?,-0.8,-0.4%,-4,-4%,0.6
C#Cc1ccc(NC(=O)C2(C)CCN2C(=O)C/C=C/c2ccccc2)cc1 (configuration not stated),.,1.2,-2.4%,-5,.,.
Cc1c(CNCCCc2ccccc2)c(C(=O)O)c(C)n1Cc1ccc(Cl)cc1,.,-0.5,1.9%,-9,.,.
CN1CCCN(C(=O)c2cc(=O)[nH]c3ccccc23)c2nc3ccccc3nc21,-28%,-0.7,-3.0%,13,-3%,2.2
CC(C)CCNC(=O)c1cc(S(=O)(=O)N2CCc3ccccc32)cn1C,-23%,1.8,0.9%,7,-3%,-1.8
Cc1ccc(S(=O)(=O)Nc2cc(C(=O)Nc3cc(C)cc(C)c3)ccc2Cl)cc1,?,0.4,-2.6%,42,4%,-0.6

# Full records, looked up by structure.
# Entry for `O=C(CCN1C(=O)c2ccccc2S1(=O)=O)Nc1ccc2c(c1)OCCO2` : gsp agonist = -13%; TRPML1 agonist = -0.3; ClpP mod = -1.5%; TRPML1 inh = 15; gsp antagonist = -3%; Menin-MLL FL inh = 5.8
# Entry for `c1ccc(C2C/C(=N\N3CCOCC3)c3ccccc3O2)cc1` (configuration not stated) : gsp agonist = 9%; TRPML1 agonist = 2.3; ClpP mod = -0.8%; TRPML1 inh = 7; gsp antagonist = 11%; Menin-MLL FL inh = 3.9

# (next part)
SMILES,gsp agonist,TRPML1 agonist,ClpP mod,TRPML1 inh,gsp antagonist,Menin-MLL FL inh
COc1ccc(NC(=S)N(CCCN2CCOCC2)Cc2cn(C)c3ccccc23)cc1,-8%[15.4 µM],-0.1,-0.1%,10,-5%,-2.5
Clc1ccc(/C=N/NC(=Nc2ccccc2)c2ccccn2)c(Cl)c1,14%,-0.9,0.8%,-10,-14%,2.9
C/C(=N\NC(=O)c1cc(C)nc2ccc(C)cc12)c1ccncc1,-20%,-0.2,2.0%,23,11%,-5.2
CCOc1ccc(NC(=O)c2ccc3c(c2)N(Cc2ccc(F)cc2)C(=O)CS3=O)cc1 (configuration not stated),-38%[inhibitor],0.0,2.2%,9,?,2.1
COc1ccccc1N1CCN(/N=C/C=C\c2ccccc2[N+](=O)[O-])CC1,-69%[inhibitor],0.2,-2.1%,3,-6%,-0.4
CCCc1cc(=O)oc2c3c(cc(OCC(=O)NCc4ccncc4)c12)OC(C)(C)CC3,?,0.6,3.8%,-2,-19%,1.4
CCc1ccc(-n2c(SCC(=O)N3CCC(C(=O)O)CC3)nnc2-c2ccncc2)cc1,8%[15.4 µM],-0.6,-1.2%,22,-2%,5.0
CC(Oc1ccc(Cl)cc1)C(=O)Nc1ccc(S(=O)(=O)Nc2nccs2)cc1 (configuration not stated),?,3.6,.,20,-26%,1.0
